HPGD inh – blocks human HPGD enzyme activity. P15428. purified HPGD, NADH fluorescence kinetic, PGE2 substrate. Potency, µM, for the others: at the top dose activity change, negative = inhibition, actives largely listed as inhibitors. 4.3% of 150,000 active; active = well fitted inhibition curve with a large enough effect (not every such curve was filed as active); inconclusive = small, poorly fitted or top-dose-only effect, or another doubt; inactive = no such curve, though single readings can be large or run the other way;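 further: top concentration of the series not given in the record; plate controls included wells without enzyme; inactives centre near -10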
Target sequence (P15428 whole entry, looked up): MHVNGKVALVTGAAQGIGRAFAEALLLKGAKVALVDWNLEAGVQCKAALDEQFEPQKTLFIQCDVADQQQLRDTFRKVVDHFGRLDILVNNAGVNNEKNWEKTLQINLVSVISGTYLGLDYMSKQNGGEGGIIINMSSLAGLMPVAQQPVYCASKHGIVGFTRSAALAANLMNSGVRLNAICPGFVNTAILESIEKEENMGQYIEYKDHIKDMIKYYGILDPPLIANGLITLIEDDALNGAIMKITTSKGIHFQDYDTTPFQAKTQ
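20 nM HPGD preincubated 15 min at room temperature with compound in 50 mM Tris-HCl pH 8, 0.01% Tween 20. Started with 1 mM NAD+ and 30 uM prostaglandin E2; NADH fluorescence (360/450 nm) read 5 times over 30-s intervals, last minus first.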
* = called active by the depositor; ? = inconclusive. On the % scale 0 is the no-effect control and ±100 the full control effect; potency means the concentration at half of the fitted maximal effect. These rows are one share of the data; count on the stated rates, not on these rows.

A first look (15 entries):
SMILES	HPGD inh
Cc1ccc(C2SCC(C(=O)O)N2C(=O)c2ccc(F)cc2)cc1 (configuration not stated)	-10%
O=C(COc1ccccc1)Nc1nc(-c2cccs2)cs1	-16%
Cc1ccc(C)c2[nH]c(=O)c(CCNC(=O)CC(C)C)cc12	-25%
COC(=O)CCN(C)CCC(=O)OC	-10%
O=c1cc(Nc2ccc3c(c2)OCCO3)[nH]c(=O)n1Cc1ccc(F)cc1	-15%
COc1cc(NC(=O)c2nccnc2C(=O)O)cc(OC)c1	-2%
CC(NS(=O)(=O)c1ccc(Cl)cc1)C(c1cccs1)N1CCN(C)CC1 (configuration not stated)	-4%
CCCCOC(=O)CSc1nc2c(c(=O)[nH]c(=O)n2C)n1C/C=C(\C)Cl	-29%
Cc1nn(Cc2c(Cl)cccc2Cl)c(Cl)c1/C=N/NC(=O)c1cccnc1	-23%
O=C(c1cnn2c(C(F)(F)F)cc(-c3ccc4c(c3)OCO4)nc12)N1CCCCC1	2.8µM*
O=C(NCc1ccco1)c1ccc(CS(=O)(=O)Cc2ccc(F)cc2)o1	2%
Cc1ccc2nc(NC(=O)CSCC(=O)OCC(=O)c3ccccc3)sc2c1	-18%
S=C(NCCC(c1ccccc1)c1ccccc1)Nc1ccc(Cl)cc1	-12%
Cn1c(=N)c(S(=O)(=O)c2ccc(F)cc2)cc2c(=O)n3ccccc3nc21	?
CCN(CCCNC(=O)CC(C(=O)N1CCc2ccccc21)n1ccnc1)c1ccccc1 (configuration not stated)	-12%

The list itself, previewed entries included:
SMILES	HPGD inh
Cc1ccc(C2SCC(C(=O)O)N2C(=O)c2ccc(F)cc2)cc1 (configuration not stated)	-10%
O=C(COc1ccccc1)Nc1nc(-c2cccs2)cs1	-16%
Cc1ccc(C)c2[nH]c(=O)c(CCNC(=O)CC(C)C)cc12	-25%
COC(=O)CCN(C)CCC(=O)OC	-10%
O=c1cc(Nc2ccc3c(c2)OCCO3)[nH]c(=O)n1Cc1ccc(F)cc1	-15%
COc1cc(NC(=O)c2nccnc2C(=O)O)cc(OC)c1	-2%
CC(NS(=O)(=O)c1ccc(Cl)cc1)C(c1cccs1)N1CCN(C)CC1 (configuration not stated)	-4%
CCCCOC(=O)CSc1nc2c(c(=O)[nH]c(=O)n2C)n1C/C=C(\C)Cl	-29%
Cc1nn(Cc2c(Cl)cccc2Cl)c(Cl)c1/C=N/NC(=O)c1cccnc1	-23%
O=C(c1cnn2c(C(F)(F)F)cc(-c3ccc4c(c3)OCO4)nc12)N1CCCCC1	2.8µM*
O=C(NCc1ccco1)c1ccc(CS(=O)(=O)Cc2ccc(F)cc2)o1	2%
Cc1ccc2nc(NC(=O)CSCC(=O)OCC(=O)c3ccccc3)sc2c1	-18%
S=C(NCCC(c1ccccc1)c1ccccc1)Nc1ccc(Cl)cc1	-12%
Cn1c(=N)c(S(=O)(=O)c2ccc(F)cc2)cc2c(=O)n3ccccc3nc21	?
CCN(CCCNC(=O)CC(C(=O)N1CCc2ccccc21)n1ccnc1)c1ccccc1 (configuration not stated)	-12%
CO[C@@]1(NC(=O)Cc2cccs2)C(=O)N2C(C(=O)O)=C(COC(N)=O)CSC21 (some centres not stated)	-9%
O=C(NCC1CCCO1)c1cc2n(n1)C(C(F)(F)F)CC(c1ccc(F)cc1)N2 (configuration not stated)	?
Clc1ccc(CSc2nnnn2-c2ccc3c(c2)OCO3)c(Cl)c1	-12%
O=C1NC2(CCCCC2)C(=O)N1CCS(=O)(=O)Oc1ccccc1	-6%
Cc1ccc(C(=O)N2CCN(c3ccc(NC(=S)NC(=O)Cc4ccccc4)cc3)CC2)cc1	-10%
Cc1cccc(C(=O)Oc2ccc(/C=N/NC(=O)Cc3ccc([N+](=O)[O-])cc3)cc2)c1	-12%
O=C(COC(=O)Cc1ccc(Br)cc1)Nc1c(F)c(F)c(F)c(F)c1F	-10%
Cn1c(SCc2ccccc2)nnc1-c1c[nH]c2ccccc12	-9%
O=C1CC(N2CCC(O)CC2)C(=O)N1c1ccc(Br)cc1 (configuration not stated)	-9%
CCc1ccc(C2C(C(=O)O)c3ccccc3C(=O)N2C)cc1 (configuration not stated)	-4%
CC(=O)c1ccc(NC(=S)NNC(=O)c2ccncc2)cc1	-22%
O=[N+]([O-])c1ccc(N2CCN(Cc3ccccc3)CC2)c(S(=O)(=O)N2CCOCC2)c1	-10%
COC(=O)CCC(=O)OC1(C)C(=O)C=C2C=C(C3CC3)N(Cc3ccco3)C=C2C1=O (configuration not stated)	-3%
COc1ccc(C(=O)NCc2nnc(SCC(=O)N3CCCCC3)o2)cc1OC	-24%
O=[N+]([O-])c1c(NCCCO)cc(SCc2ccco2)c2nonc12	-12%
CC1(C)c2ccccc2N2CC(=O)N(CC(N)=O)C21C (configuration not stated)	-3%
O=C(Cn1ccc2ccccc2c1=O)NCCC(=O)N1CCN(C2CCCCC2)CC1	-20%
Cc1cnc(NC(=O)CSc2nnc(C)n2N)s1	-6%
Cc1cc(C)n(C(=O)c2nn(C)c(C)c2[N+](=O)[O-])n1	-8%
CC(NC(=S)Nc1ccc(S(N)(=O)=O)cc1)c1ccc2c(c1)OCO2 (configuration not stated)	-3%
CCN(c1ccccc1)S(=O)(=O)c1cc(C(=O)Nc2cccc(Cl)c2)ccc1F	-8%
CCOC(=O)/C=C/c1cnn(-c2ccccc2)c1	-27%
N=c1n(Cc2ccccc2)c2ccccc2n1CC(O)c1ccccc1 (configuration not stated)	-3%
Cn1c(NC(=O)C2CC2)cc(=O)n(C)c1=O	-18%
O=C(NCCc1ccccc1)c1ncn[nH]1	-7%

Marked active in HPGD inh, among the entries above:
SMILES	HPGD inh
O=C(c1cnn2c(C(F)(F)F)cc(-c3ccc4c(c3)OCO4)nc12)N1CCCCC1	2.8µM*

Following part
SMILES	HPGD inh
Cc1c(Cl)cnc(NC(=O)COC(=O)c2cccc(S(=O)(=O)N3c4ccccc4CC3C)c2)c1Cl (configuration not stated)	-22%
CCCC(=O)N1CCN(c2ccc(NC(=O)c3sc4ccccc4c3Cl)cc2)CC1	-5%
Cc1ccc(NC(=O)/C(=C/C=C/c2ccccc2)NC(=O)c2ccccc2)cc1	-9%
O=C(Nc1ccc2c(c1)CCC2)c1cccc(S(=O)(=O)Nc2ccccc2Cl)c1	-12%
CC(=O)N(CN1C(=O)c2ccccc2C1=O)c1ccc2c(c1)oc1ccccc12	-8%
COc1ccc(C2(O)CCN(CC(=O)Nc3nccs3)CC2)c(OC)c1	-12%
COCCNC(=O)c1onc(CSc2ccccc2C)c1C(=O)O	-12%
CCc1ccc(-c2cc(-c3n[nH]c(=S)n3CC)c3ccccc3n2)cc1	?
CCCC(C(=O)Nc1nccs1)c1ccccc1 (configuration not stated)	-7%
Cc1cc(C(=O)CN2C(=O)NC3(CCCCC3)C2=O)c(C)n1-c1ccc2c(c1)OCO2	-12%
COc1ccc(S(=O)(=O)N2CC(C(=O)O)Oc3ccc(CC(=O)O)cc32)cc1 (configuration not stated)	3%
COc1cccc(C2/C(=C(/O)c3ccc(C)cc3)C(=O)C(=O)N2Cc2ccco2)c1 (configuration not stated)	-9%
O=C(Cc1ccccc1)Nc1ccccc1Sc1ccccc1	?
O=C(c1oc(=O)c2ccccc2c1-c1ccccc1)N1CCOCC1	-2%
COc1cccc(S(=O)(=O)Nc2ccc(C(=O)N3CCN(C(=O)c4ccco4)CC3)cc2)c1	-10%
NC(=O)C1CCN(c2nnnn2-c2ccccc2)CC1	-7%
COc1ncnc2sc3c(c12)CCCC3	-22%
CCCCn1c(-c2csc(C(C)C)c2)n[nH]c1=S	?
NC(=O)c1ccccc1OCC(=O)NS(=O)(=O)c1ccc(Cl)cc1	-3%
COc1cc2c(cc1OC)CN(C(=O)NS(=O)(=O)c1ccc(C)cc1)CC2	?
CC1CCCCC1NC(=O)C1CCN(S(=O)(=O)c2cccc3nsnc23)CC1 (configuration not stated)	-8%
O=C(Oc1cccc2c(O)cccc12)c1ccccc1	-1%
CC(O)C1CCC2C3CC[C@H]4CC(O)CCC4(C)C3CC3(OCCO3)C12C (some centres not stated)	-4%
O=C(/C=C/c1ccc(OCCCF)cc1)NCc1ccc(Cl)cc1	-5%
Cc1ccc(NC(=O)C(=O)NNC(=O)c2ccccc2C)cc1Cl	-17%
CCCC(=O)Nc1ccc(NC(=O)c2ccco2)c(OC)c1	-10%
N#CC(C(=O)c1ccco1)c1ccccn1 (configuration not stated)	-3%
Cc1ccc(S(=O)(=O)N2CCOCC2)cc1C(=O)OCC(=O)NC1CCS(=O)(=O)C1 (configuration not stated)	-4%
COC(=O)/C(=C/Nc1ccccc1)[N+](=O)[O-]	-7%
CCCCCCOC(=O)C[N+](C)(C)CCOC1CC2CCC1(C)C2(C)C (configuration not stated)	-9%
CCCNC(=O)Cn1cnc2sc(C(=O)NCCN(CC)CC)c(C)c2c1=O	-3%
O=[N+]([O-])c1cc(S(=O)(=O)N2CCCC2)ccc1NCCc1ccccc1	-16%
CCOC(=O)c1cc(-c2cc3ccccc3o2)nc2c1c(=O)[nH]c(=O)n2CCOC	?
O=C(O)C1CCCCC1C(=O)Nc1ccc(Cl)cc1Cl (configuration not stated)	-7%
Nc1c(Cl)cc(Cl)cc1C(=O)OCC(=O)N1CCCC1	?
CCOC(=O)NC1(NCc2ccccc2)Oc2ccccc2O1	-9%
COC(=O)c1ccc(S(N)(=O)=O)o1	-3%
Cc1ccc(NC(=O)COC(=O)Cn2cnc3ccccc32)cc1S(=O)(=O)N(C)C	-2%
COc1ccc(CCNS(=O)(=O)c2ccc3c(c2)CCN3C(=O)C2CC2)cc1OC	-4%
Cc1ccccc1NC(=O)CSc1nnc(-c2ccoc2C)n1CCc1ccccc1	-8%
O=C(c1cnccn1)N1CCC2(CC1)CCN(c1ccccc1)CC2	-1%
CC(C)(C)n1nnnc1C(c1cccnc1)N1CCN(c2ccccc2)CC1 (configuration not stated)	-4%
CC1CC(OC(=O)C(O)c2ccccc2)CC(C)(C)C1 (configuration not stated)	-6%
COC(=O)c1ccc(Nc2nc(C)cc(=O)[nH]2)cc1	-17%
CCCCCC(=O)NNC(=S)NC(=O)c1cccc([N+](=O)[O-])c1	10µM*
Cc1ccc(C(=O)C2=C(O)C(=O)N(Cc3ccccc3)C2c2cccnc2)o1 (configuration not stated)	-12%
Cc1ccc(S(=O)(=O)N2CCN(CC(=O)N/N=C/C=C/c3ccccc3)CC2)cc1	-12%
O=C(Cc1ccc(S(=O)(=O)N2CCCCC2)s1)Nc1ccc(F)cc1F	-3%
Cc1cnc2cc([N+](=O)[O-])ccc2n1	-3%
Cc1ccc(S(=O)(=O)/N=C/c2ccc(N(C)C)cc2)cc1	-17%

Additional entries
SMILES	HPGD inh
Cc1ccc2nc(SCc3nnc(-c4ccccc4)o3)[nH]c2c1	?
O=C(c1ccccc1)C1CN(c2ccccc2)CC1c1ccc(Cl)cc1 (configuration not stated)	2%
Cc1ccc(/C(N)=N/OC(=O)Cc2ccccc2)cc1	-2%
Cc1nc(NC(=O)CSc2nc3cccnc3n2Cc2ccccc2)sc1C	-17%
Cc1nn(-c2ccccc2)c(C)c1NC(=O)CCl	-9%
CCC(=O)NC(=S)Nc1ccc(NC(=O)COc2ccc(Cl)c(C)c2)cc1	-9%
O=C(c1csc2c1CCCCC2)N1CCN(c2ncccn2)CC1	-12%
CCCCC1=CC2=CC(=O)C(C)(OC(=O)CC)C(=O)C2=CN1c1ccccc1 (configuration not stated)	-3%
CCCNC(=O)C(Cc1ccccc1)NS(=O)(=O)c1ccc2c(c1)c(=O)n(C)c(=O)n2C (configuration not stated)	0%
CS(=O)(=O)Nc1nc2n(n1)C(c1ccccc1)C=C(c1ccc(Br)cc1)N2 (configuration not stated)	?
Cc1ccc(NC(=O)CSc2nc3nc(C)cc(C)c3c(=O)[nH]2)cc1	?
NC(=S)Nc1cccc2cccnc12	-13%
CCn1c(CSc2nncn2-c2ccc(OC)cc2)nc2cc(S(=O)(=O)N(C)C)ccc21	-8%
Cc1ccccc1S(=O)(=O)Cc1ccc(C(=O)NCc2cccnc2)o1	-8%
CCCOc1cc(C)c(S(=O)(=O)NCCOC)cc1C	-6%
CCCOc1ccc(NC(=O)C2CC(=O)N3CCCN=C3S2)cc1 (configuration not stated)	-14%
CCN(CC)Cc1cc(Nc2ccnc3cc(Cl)ccc23)ccc1O	0%
CC(C)N(Cc1nc(-c2ccc(Cl)cc2)no1)C(=O)CN(C)S(=O)(=O)c1ccc(Cl)cc1	-11%
CC(C)N1C(=O)c2ccc(C(=O)O)cc2C1=O	-8%
COCCNC(=O)C(c1ccc(Cl)cc1)N(C(=O)CCC(=O)Nc1ccccn1)C1CCCC1 (configuration not stated)	-2%
Cc1cccc(C)c1NC(=O)c1cccc2c1-c1ccccc1C2=O	-10%
COC(=O)c1ccccc1NC(=O)/C=C/C(=O)O	-9%
CCCC(=O)NC1C2CC3CC(C2)CC1C3 (configuration not stated)	-11%
Cc1ccc(C2=NN3C(C(=O)c4ccccc4)Oc4ccccc4C3C2)cc1 (configuration not stated)	-11%
CC(C)Cc1nc(SCC(=O)Nc2ccc(S(N)(=O)=O)cc2)n[nH]1	-26%
O=c1[nH]c(N/N=C/c2ccccc2)nc2ccccc12	?
O=C(/C=C/c1cccs1)Nc1cccnc1	-13%
COC(=O)c1ccc(NC(c2ccc(Cl)cc2)P(=O)(OC)OC)cc1 (configuration not stated)	-23%
Cc1cc(C(=O)CSc2nc3ccc(Cl)cc3[nH]2)c(C)n1C	?
O=C(Nc1ccccc1)C1=C(N2CCOCC2)/C(=C/c2cccnc2)CC1	-14%
COc1ccccc1OCC(=O)Nc1sc2c(c1C(=O)NCC1CCCO1)CCC2 (configuration not stated)	-18%
O=C(Nc1ccccc1)c1ccc(Cc2nc3ccccc3[nH]2)cc1	-3%
Cc1cc(C)n(C(=O)CNc2ccccc2Cl)n1	-16%
O=C(NC12CC3CC(CC(C3)C1)C2)c1cccnc1	-7%

Bioassay records from PubChem.
